VCAM-1 inhibition – inhibitors of TNFa-induced VCAM-1 surface display, cell-based, plate reader, pooled HUVEC, TNFa stimulus (AID 454). HUVEC TNFa-induced VCAM-1 surface immunofluorescence, plate reader; numbers were filed only for top-ranked candidate wells. inhibition, % at 5 µM. hit rate 0.2% among 10,000;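 active means compound among top-ranked inhibitors of TNF-induced VCAM-1 adhesion protein staining, with the hit upheld by image or statistical review; inactive means the rest, including hits rejected on review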;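 further: 0% = TNFa with vehicle and 100% = cells without TNFa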
FPRL1 binder – human FPRL1 ligand, with FPR counter-screen; inhibition, %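 (tested at 6.7 µM)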; FPRL1-expressing cells, fluorescent ligand binding inhibition, flow cytometry; hit rate 0.3% among 24,000; P25090;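 further: 0% = buffer alone and 100% = receptor blocker peptide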
Target sequence (P25090 whole entry, looked up): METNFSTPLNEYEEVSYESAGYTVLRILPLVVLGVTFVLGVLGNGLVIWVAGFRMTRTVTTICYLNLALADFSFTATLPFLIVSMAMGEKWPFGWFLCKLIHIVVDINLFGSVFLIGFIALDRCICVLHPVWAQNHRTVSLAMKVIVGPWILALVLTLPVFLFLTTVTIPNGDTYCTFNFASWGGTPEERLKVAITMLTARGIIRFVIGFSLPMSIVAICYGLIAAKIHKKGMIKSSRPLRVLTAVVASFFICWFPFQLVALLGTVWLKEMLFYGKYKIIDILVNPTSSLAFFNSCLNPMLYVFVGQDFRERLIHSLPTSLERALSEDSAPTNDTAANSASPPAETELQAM
VCAM-1 augmentation – enhancers of VCAM-1 display on endothelial cells, imaging, high-content imaging, pooled HUVEC, TNFa stimulus (AID 457) | Pooled HUVEC, TNFa-induced VCAM-1 immunofluorescence imaging; hits of this screen are not shown here | calls only | hit rate 0.2% among 10,000;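 active means a top-ranked rise in VCAM-1 staining upheld on image or statistical review; inactive means the rest, including candidates rejected on review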;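 further: compounds tested at 5 µM in the well; cells exposed to compound for 24 hours before fixing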
VCAM-1 imaging – inhibitors of TNFa-induced VCAM-1 surface display, imaging, high-content imaging, pooled HUVEC, TNFa stimulus (AID 456). HUVEC TNFa-induced VCAM-1 surface expression, immunofluorescence imaging; numbers were filed only for top-ranked candidate wells. inhibition, % at 5 µM; hits with a dose series show IC50 in µM. hit rate 0.2% among 10,000;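 active means top tenth filtered wells with inhibition above zero that passed visual or statistical confirmation; inactive means the rest, including hits rejected on review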;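 further: 0% = stimulated vehicle wells and 100% = unstimulated cells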
FPR binder – human FPR ligand, with FPRL1 counter-screen | P21462 | AID 440 | FPR-expressing cells, fluorescent ligand binding, flow cytometry | inhibition, %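 (tested at 6.7 µM)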 | hit rate 0.74% among 24,000;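 further: 0% = buffer wells and 100% = receptor blocker peptide wells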
Target sequence (P21462 whole entry, looked up): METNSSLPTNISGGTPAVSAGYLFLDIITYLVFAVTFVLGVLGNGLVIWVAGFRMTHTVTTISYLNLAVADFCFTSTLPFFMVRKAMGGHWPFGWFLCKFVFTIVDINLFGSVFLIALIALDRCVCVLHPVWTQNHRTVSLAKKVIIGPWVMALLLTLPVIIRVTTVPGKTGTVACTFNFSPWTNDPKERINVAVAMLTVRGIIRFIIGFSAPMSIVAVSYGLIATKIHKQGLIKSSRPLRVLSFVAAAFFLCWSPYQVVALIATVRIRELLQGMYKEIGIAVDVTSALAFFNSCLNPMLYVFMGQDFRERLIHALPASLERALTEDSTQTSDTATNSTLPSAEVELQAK
* marks the source's active call; other numbers are inactive results; i = inactive; x = no result given.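 How the source made its calls, unless noted: active means mean above 30%; inconclusive means self-fluorescent; inactive means the rest.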 An excerpt, so the mix of outcomes need not match the whole.

SMILES | VCAM-1 inhibition | FPRL1 binder | VCAM-1 augmentation | VCAM-1 imaging | FPR binder
CCc1ncc(C(O)c2cccc(OC)c2OC)n1C (centres undefined) | i | -2 | i | i | 2
CCc1cn([C@H]2C[C@H](O)[C@@H](CO)O2)c(=O)[nH]c1=O | i | 1 | i | i | 8
Cc1ccc(NC(=O)C2CCCN(S(=O)(=O)c3ccc4c(c3)oc(=O)n4C)C2)nc1 (centres undefined) | x | -6 | x | x | -3
Cc1ccc(S(=O)(=O)NC(C)C(c2cccs2)N2CCN(C)CC2)cc1 (centres undefined) | x | 5 | x | x | 6
CCOC(=O)[C@H](CCc1ccccc1)N[C@@H](C)C(=O)N1CCC[C@H]1C(=O)O | i | -5 | i | i | 1
O=C(C1CCN(S(=O)(=O)c2cccc3nsnc23)CC1)N1CCN(c2ccccc2F)CC1 | x | -4 | x | x | 3
CC(=O)Nc1c(O)n(C)c2ccccc12 | i | 1 | i | i | -2
CC1=C(C(=O)OC(C)C)C(c2c[nH]c3ccccc23)n2ncnc2N1 (centres undefined) | x | -3 | x | x | -10
CN(Cc1ccccc1)C(=O)c1ccc2c(c1)OCO2 | i | -7 | i | i | -1
COc1ccc(-n2nnc3c(=O)n(Cc4cc(C)ccc4C)cnc32)cc1 | x | -2 | x | x | -1
COC(=O)CSc1nnc(-c2cccs2)n1-c1ccc(Cl)cc1 | i | 0 | i | i | 3
CCOC(=O)C1CCN(Cc2cnc(NC(=O)OC)s2)CC1 | x | 2 | x | x | 14
O=C(NC1CCCC1)C1CCCN(S(=O)(=O)c2cnc[nH]2)C1 (centres undefined) | x | 5 | x | x | -5
CCOC(=O)N1CCN(S(=O)(=O)c2cc(Cl)ccc2Cl)CC1 | i | 2 | i | i | 2
COc1ccc(NC(=O)c2c(SC)nsc2SC)cc1 | x | 3 | x | x | 2
O=C(CCN1C(=O)c2ccncc2C1=O)Nc1ccc2c(c1)OCCO2 | x | 10 | x | x | -4
Cc1c(NC(=O)c2nn(C)c(=O)c3ccccc23)c(=O)n(-c2ccccc2)n1C | i | 5 | i | i | 5
O=c1cc(-c2ccccc2)nc(N2CCN(Cc3ccccc3)CC2)[nH]1 | x | 25 | x | x | 26
CN1CCc2c(sc3c2c(=O)n(-c2ccccc2)c2nnc(SCc4ccc(F)cc4)n32)C1 | i | -2 | i | i | -4
O=C(OCc1nnc(-c2ccc(Cl)cc2)o1)c1ccc(=O)n(Cc2ccccc2)n1 | i | 1 | i | i | 3
COCCNC(=O)CSc1nc2ccc(N3CCOCC3)cc2c(=O)n1CCc1ccccc1 | x | 0 | x | x | -2
CCOC(=O)c1cn(CC)c2ccc(S(=O)(=O)N3CCC(C)CC3)cc2c1=O | x | 4 | x | x | -1
Cc1cc(NC(=O)C2=C(O)c3ccccc3S(=O)(=O)N2C)no1 | i | -3 | i | i | -8
Cc1nnc(SCC(=O)Nc2ccc3c(c2)COC3=O)n1-c1ccccc1 | x | 6 | x | x | -4
CCC(C)Nc1nc2c(c(=O)n(C)c(=O)n2C)n1Cc1ccc(F)cc1 (centres undefined) | i | -2 | i | i | -5
CCOc1cc2[nH]c(=S)n(CCCCC(=O)NCc3ccco3)c(=O)c2cc1OCC | x | 5 | x | x | 3
O=C(c1cc(-c2ccco2)on1)N1CCCc2ccccc21 | x | -1 | x | x | 3
Cc1ccc(C)c(N2CCN(C(=O)Cn3cccc3)CC2)c1 | x | -1 | x | x | -7
CCCOC1(NC(=O)c2ccccc2)C(C)=CC(=O)C=C1C | x | 0 | x | x | 2
COc1ccccc1C(=O)Oc1cc(N)n(S(=O)(=O)c2ccc(C)cc2)n1 | x | 0 | x | x | 7
COc1ccc(C)cc1NC(=O)Cn1cnc2sc(C)c(S(=O)(=O)N3CCOCC3)c2c1=O | x | -7 | x | x | -4
CC1(C)CC(=O)C2=C(C1)N(CCN1CCOCC1)C1=C(C(=O)CC(C)(C)C1)C2c1ccc(Cl)cc1 | x | -2 | x | x | -6
CC1CCCC(NC(=O)c2n[nH]c(=O)c3ccccc23)C1C (centres undefined) | x | 1 | x | x | 0
CCOC(=O)Cc1c(C)nc2c(-c3ccccc3)c(-c3ccccc3)[nH]n2c1=O | x | -9 | x | x | 14
CCOCCCNC(=O)CN1C(=O)C(CC)Oc2ccccc21 (centres undefined) | x | 10 | x | x | 0
CC(=O)N1CCN=C1SCc1ccccc1 | x | 0 | x | x | -5
C1CCN=C(Nc2nc3c(s2)CCCC3)CC1 | i | -4 | i | i | -1
C/C(N)=C(/C#N)C(=O)COC(=O)c1cc(C)n(-c2ccc(F)cc2)c1C | i | 0 | i | i | 11
O=C1c2ccccc2C(Nc2ccc3c(c2)OCO3)N1Cc1ccco1 (centres undefined) | x | 4 | x | x | 2
Cc1ccc(-c2nc(CSCC(=O)N3CCOCC3)c(C)o2)cc1 | x | -1 | x | x | -4
COc1ccc2c(c1)CCc1c(C(=O)N3CCOCC3)noc1-2 | x | -2 | x | x | 1
CCc1ccccc1N(C(=O)c1cccs1)C1C=CS(=O)(=O)C1 (centres undefined) | x | -2 | x | x | -2
O=C(CCN1CCN(CCO)CC1)Nc1ccc(OCc2ccccc2)cc1 | i | 9 | i | i | 2
Cc1cccc(N2CCN(C(=O)c3cc4c(C)nc5ccccc5c4o3)CC2)c1C | x | 6 | x | x | 4
COc1ccc(CN2C(=O)c3ccccc3C2C(=O)NC2CCCC2)c(OC)c1 (centres undefined) | i | 1 | i | i | 8
COc1ccc(N2CCN(Cc3nc4c(c(=O)[nH]c(=O)n4C)n3CCCc3ccccc3)CC2)cc1 | x | -3 | x | x | 4
CCS(=O)(=O)N1CCC(C(=O)NCCCN2CCCC2)CC1 | x | 0 | x | x | 3
O=c1c2ccccc2cnn1-c1nc2ccccc2s1 | i | -4 | i | i | -3
CC(=O)CCc1c(C)[nH]c2ccccc2c1=O | i | 8 | i | i | -4
COc1ccc(Cl)cc1S(=O)(=O)N1CCN(C(=O)c2cc(OC)c(OC)c(OC)c2)CC1 | x | -4 | x | x | 1
CCCCN(CC)CCNC(=O)c1cc2c(C)nc3ccccc3c2o1 | i | -1 | i | i | -3
O=C(NCCc1ccccc1)C1CCCN(S(=O)(=O)c2cccc3nsnc23)C1 (centres undefined) | x | -2 | x | x | 2
O=C(CSc1nnnn1-c1ccccc1)Nc1ccc(Cl)cc1 | i | 6 | i | i | -7
CCc1nnc(NC(=O)CCC(=O)Nc2ccccc2)s1 | i | 3 | i | i | -11
O=C(NCc1ccc2c(c1)OCO2)c1cc2n(n1)C(C(F)(F)F)CC(c1ccc3c(c1)OCO3)N2 (centres undefined) | i | 0 | i | i | 11
COc1cc2nc(=S)n3[nH]c(CCn4c(C)nc5ccccc54)nc3c2cc1OC | x | 0 | x | x | 5
CC1=C(C#N)C(Nc2cccc(C)n2)(C(F)(F)F)C(=O)N1 (centres undefined) | x | -8 | x | x | 1
C=CCNc1nc2c(c(=O)n(C)c(=O)n2C)n1CCCCCC | i | -2 | i | i | -10
CCn1cc(C(=O)NCC2CCCO2)c(=O)c2cc(S(=O)(=O)N3CCC(C)CC3)ccc21 (centres undefined) | x | 0 | x | x | -1
CC1Cc2ccccc2N1C(=O)C1CCCN(S(=O)(=O)c2cccc3nsnc23)C1 (centres undefined) | x | -2 | x | x | -1

4 entries from above, as tab-separated lines:
structure	VCAM-1 inhibition	FPRL1 binder	VCAM-1 augmentation	VCAM-1 imaging	FPR binder
CCc1nnc(NC(=O)CCC(=O)Nc2ccccc2)s1	i	3	i	i	-11
O=C(CSc1nnnn1-c1ccccc1)Nc1ccc(Cl)cc1	i	6	i	i	-7
CCCCN(CC)CCNC(=O)c1cc2c(C)nc3ccccc3c2o1	i	-1	i	i	-3
O=C(NCCc1ccccc1)C1CCCN(S(=O)(=O)c2cccc3nsnc23)C1 (centres undefined)	x	-2	x	x	2

(listing goes on)
SMILES | VCAM-1 inhibition | FPRL1 binder | VCAM-1 augmentation | VCAM-1 imaging | FPR binder
COc1ccc(S(=O)(=O)NCCC(=O)NCc2ccc(F)cc2)cc1 | x | 1 | x | x | -3
CC(C)CC(NC=C1C(=O)OC(C)(C)OC1=O)C(=O)O (centres undefined) | x | -2 | x | x | 2
O=C(c1ccc(-c2cccc(C(F)(F)F)c2)o1)N1CCOCC1 | i | -3 | i | i | -7
CCOC(=O)Cn1c(=O)oc2cc(S(=O)(=O)N(C)Cc3ccco3)ccc21 | x | 5 | x | x | -4
O=C(NCc1cccs1)c1cc(-c2cccs2)on1 | x | -2 | x | x | -1
COC(=O)c1ccc(CSc2nnc(CNC(=O)COc3ccc(Cl)cc3)o2)o1 | x | 6 | x | x | 8
CCc1ccc(C(=O)CC2(O)C(=O)N(CN3CCOCC3)c3ccccc32)cc1 (centres undefined) | x | 4 | x | x | 3
CN1CCN(c2ccc(Cl)cc2NC(=O)c2cccc(S(=O)(=O)N(C)C)c2)CC1 | i | 4 | i | i | -5
Cc1ccc(CNC(=O)c2sccc2-n2cccc2)cc1 | x | 2 | x | x | 2
CCCCOc1ccc(N(CC(=O)NC2CCCC2)C(=O)CCC(=O)Nc2ccccn2)cc1 | i | -9 | i | i | 6
O=S(=O)(c1ccc(Br)cc1)N1CCn2c(nc3ccccc32)C1 | x | -1 | x | x | 1
CSc1nnc(Cc2cc(=O)[nH]c(=O)[nH]2)n1-c1cccc(C)c1 | x | -4 | x | x | -2
CCn1c(CNc2ccc(OC)cc2)nnc1SCC(=O)c1ccc(OC)cc1 | i | 0 | i | i | 2
O=C(COc1ccccc1Cl)N1CCCC1 | i | 10 | i | i | 10
O=C1C2CC=C(Cl)CC2C(=O)N1CNc1ccccn1 (centres undefined) | i | -7 | i | i | -6

Single records, from the list above. Values in the order: VCAM-1 inhibition, FPRL1 binder, VCAM-1 augmentation, VCAM-1 imaging, FPR binder
CSc1nnc(Cc2cc(=O)[nH]c(=O)[nH]2)n1-c1cccc(C)c1 across the screens: x, -4, x, x, -2
COC(=O)c1ccc(CSc2nnc(CNC(=O)COc3ccc(Cl)cc3)o2)o1 across the screens: x, 6, x, x, 8
CN1CCN(c2ccc(Cl)cc2NC(=O)c2cccc(S(=O)(=O)N(C)C)c2)CC1 across the screens: i, 4, i, i, -5

Returning to the listing, repeating the 5 entries before the break.
SMILES | VCAM-1 inhibition | FPRL1 binder | VCAM-1 augmentation | VCAM-1 imaging | FPR binder
O=S(=O)(c1ccc(Br)cc1)N1CCn2c(nc3ccccc32)C1 | x | -1 | x | x | 1
CSc1nnc(Cc2cc(=O)[nH]c(=O)[nH]2)n1-c1cccc(C)c1 | x | -4 | x | x | -2
CCn1c(CNc2ccc(OC)cc2)nnc1SCC(=O)c1ccc(OC)cc1 | i | 0 | i | i | 2
O=C(COc1ccccc1Cl)N1CCCC1 | i | 10 | i | i | 10
O=C1C2CC=C(Cl)CC2C(=O)N1CNc1ccccn1 (centres undefined) | i | -7 | i | i | -6
CCOc1ccc(OCc2ccc(C(=O)O)o2)cc1 | x | 4 | x | x | -2
CCOC(=O)N1CCC(NC(=O)CN2C(=O)COc3ccc(C(C)(C)C)cc32)CC1 | x | 6 | x | x | 2
OCC#CCSc1nnc(-c2ccccc2Br)o1 | i | 2 | i | i | 4
COc1ccc(S(=O)(=O)NC2(C(F)(F)F)N=C3SCCN3C2=O)cc1 (centres undefined) | x | 1 | x | x | 4
CCCS(=O)(=O)N1CCC(C(=O)NCCN2CCC(Cc3ccccc3)CC2)CC1 | x | 0 | x | x | -5
CCOc1ccc(-n2c(=O)c3sccc3n(CC(=O)NCc3ccco3)c2=O)cc1 | x | 5 | x | x | -2
CCN(CC)CCN1C(=O)C(=O)/C(=C(/O)c2ccc(OC(C)C)cc2)C1c1ccncc1 (centres undefined) | i | 4 | i | i | -2
Cc1cc(C)cc(NC(=O)c2nnn(Cc3cc(C)ccc3C)c2N)c1 | i | -11 | i | i | -3
Cc1ccc(Cn2nnc3c(=O)[nH]c(C4CCN(C(=O)c5cccs5)CC4)nc32)cc1 | i | -5 | i | i | -2
O=C1c2ccccc2C(Nc2ccccc2F)N1c1cccnc1 (centres undefined) | x | -1 | x | x | 4
O=C1CCN2C=Nc3cccc4ccc1c2c34 | x | 14 | x | x | -2
COc1ccc(N2CCN(C(=O)C3CCCN(S(=O)(=O)c4cccc5cccnc45)C3)CC2)cc1 (centres undefined) | x | 2 | x | x | -11
O=C(O)CSc1ncn[nH]1 | i | -2 | i | i | 0
CCN1CCN(C(=O)C2CCN(C(=O)c3cc4sccc4n3CC)CC2)CC1 | i | -1 | i | i | 1
CCCNC(=O)C1CC(=O)N(c2ccc(OCC(=O)Nc3cc(C)cc(C)c3)cc2)C1 (centres undefined) | i | 0 | i | i | -3
CCOC(=O)Cc1csc(NC(=O)CSc2nnc(C)n2C)n1 | i | 5 | i | i | -3
